# Vaccinia inh: blocks a specific stage of Vaccinia orthopoxvirus infection; Vaccinia-infected cells, mCherry/Venus stage reporter fluorescence; hits give low values; some inactives read as strong as hits; activity change (mCherry), % (concentration not given with the values); 89,000 tested, 0.01% active; AID 1053133;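 active = mCherry past -33% and 40 or more points under the early reporter, replicates agreeing; inconclusive = past -33% without that gap or agreement; tested in A549 cells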;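 also: scaled between vehicle wells and reference inhibitor wells; 23 nL library stock went into each well; one replicate is shown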
# Vaccinia inh Venus: also measured in Vaccinia inh; calls as there; activity change (Venus), %; measured here: Venus reporter, other viral stage;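 negative = less Venus signal; first of two replicates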
# The depositor's hits bear a star; ? = inconclusive; . = no result given.
SMILES,Vaccinia inh,Vaccinia inh Venus
CC(C)CC#Cc1ccc([C@@H]2[C@@H](CO)N3C(=O)CN(C(=O)Nc4cc(F)ccc4F)C[C@H]23)cc1,?,.
CO[C@@H]1CN(C)C(=O)c2ccc(NC(=O)Cc3ccccc3)cc2OC[C@H](C)N(C(C)=O)C[C@H]1C,9.9,11.3
Cc1noc(C)c1NC(=O)Nc1ccc2c(c1)C(=O)N([C@H](C)CO)C[C@@H](C)[C@H](CN(C)S(=O)(=O)c1ccc(F)cc1)O2,17.6,5.6
COc1cccc(S(=O)(=O)N(C)C[C@@H]2Oc3ncc(C#Cc4ccc(OC)c(OC)c4)cc3C(=O)N([C@H](C)CO)C[C@@H]2C)c1,-19.3,-20.3
CC=Cc1ccc2n(c1=O)C[C@H]1[C@H](CO)[C@@H](C(=O)NCc3ccc4c(c3)OCO4)[C@@H]2N1C(C)=O (mixture of isomers),5.5,6.8
O=C1CN(S(=O)(=O)Cc2ccccc2)C[C@H]2[C@@H](c3ccc(C#CCC4CCCC4)cc3)[C@H](CO)N12,-13.9,-21.2
CO[C@@H]1CN(C)C(=O)c2ccc(NC(=O)C3CCC3)cc2OC[C@@H](C)N(CC2CCCCC2)C[C@H]1C,-14.9,-7.1
CC(C)NC(=O)Nc1ccc2c(c1)C(=O)N([C@H](C)CO)C[C@H](C)[C@H](CN(C)C(=O)Nc1ccc(F)cc1)OCCCC[C@@H](C)O2,19.0,12.5
OC[C@@H]1[C@@H](c2ccc(-c3ccc(F)cc3)cc2)[C@H]2CN(CCC(F)(F)F)CCCCN12,?,.
O=C(C[C@H]1CC[C@H]2[C@@H](COC[C@H](O)CN2C(=O)Nc2ccc(F)cc2)O1)NCC1CC1,4.8,-6.9
CC(C)NC(=O)N(C)C[C@H]1Oc2ccc(NS(=O)(=O)c3ccccc3)cc2C(=O)N([C@H](C)CO)C[C@H]1C,-4.3,-0.5
COc1ccc2c3c([nH]c2c1)[C@H](CO)N(C)CC31CCN(S(=O)(=O)c2cccc(F)c2)CC1,-13.5,-10.0
C[C@@H]1CN([C@H](C)CO)C(=O)Cc2cc(NC(=O)Nc3ccc(F)cc3)ccc2O[C@H]1CN(C)Cc1ccc(C(F)(F)F)cc1,-20.8,-10.3
C[C@H](CO)N1C[C@H](C)[C@@H](CN(C)C(=O)Cc2ccccc2)OCCCC[C@H](C)Oc2ccc(NC(=O)Nc3ccccc3)cc2C1=O,7.3,1.5
C[C@@H]1CN([C@H](C)CO)C(=O)c2c(c3ccccc3n2C)-c2ccccc2CO[C@@H]1CN(C)C(=O)Nc1ccc(-c2ccccc2)cc1,-11.2,-7.6
C[C@@H]1CN([C@H](C)CO)C(=O)c2cc(NC(=O)Nc3cccc4ccccc34)ccc2O[C@H]1CN(C)Cc1ccc(Cl)c(Cl)c1,-12.9,-6.2
CN(C)C(=O)C[C@H]1CC[C@H](NC(=O)C2CCOCC2)[C@@H](CO)O1,5.0,10.0
C/C=C/c1cnc2c(c1)C(=O)N([C@H](C)CO)C[C@H](C)[C@@H](CN(C)C(=O)NCCC)O2,13.8,6.1
C[C@H]1CN([C@@H](C)CO)S(=O)(=O)c2ccc(-c3cncnc3)cc2O[C@@H]1CN(C)Cc1ccncc1,6.8,13.8
COc1ccc(S(=O)(=O)N(C)C[C@@H]2Oc3ncc(-c4cccc(F)c4)cc3C(=O)N([C@H](C)CO)C[C@@H]2C)cc1,-28.2,-21.5
O=C(Cc1ccccc1)N1CC2(C1)[C@H](c1ccccc1)[C@@H](CO)N2Cc1cccc(Cl)c1,-18.2,4.8
COc1ccc(S(=O)(=O)N(C)C[C@H]2Oc3ccc(NC(=O)NC4CCCCC4)cc3C(=O)N([C@H](C)CO)C[C@@H]2C)cc1,-2.4,-0.4
CO[C@H](CN(C)Cc1nccs1)[C@H](C)CN([C@H](C)CO)S(=O)(=O)c1ccc(C)cc1,19.0,16.8
CO[C@H]1CN(C)C(=O)c2cc(NC(=O)Nc3cc(F)ccc3F)ccc2OC[C@@H](C)N(C(=O)c2cnccn2)C[C@@H]1C,5.4,9.2
Cc1noc(C)c1NC(=O)N(C)C[C@H]1OCCCC[C@H](C)Oc2ccc(NS(=O)(=O)c3ccccc3)cc2C(=O)N([C@H](C)CO)C[C@@H]1C,24.5,7.0

# Profiles, quoted from the list:
# Listed for `CC(C)CC#Cc1ccc([C@@H]2[C@@H](CO)N3C(=O)CN(C(=O)Nc4cc(F)ccc4F)C[C@H]23)cc1` : Vaccinia inh = ?; Vaccinia inh Venus = .
# Listed for `COc1ccc(S(=O)(=O)N(C)C[C@H]2Oc3ccc(NC(=O)NC4CCCCC4)cc3C(=O)N([C@H](C)CO)C[C@@H]2C)cc1` : Vaccinia inh = -2.4; Vaccinia inh Venus = -0.4

# Grouped by structure, those above with an aryl methoxy group
SMILES,Vaccinia inh,Vaccinia inh Venus
COc1cccc(S(=O)(=O)N(C)C[C@@H]2Oc3ncc(C#Cc4ccc(OC)c(OC)c4)cc3C(=O)N([C@H](C)CO)C[C@@H]2C)c1,-19.3,-20.3
COc1ccc2c3c([nH]c2c1)[C@H](CO)N(C)CC31CCN(S(=O)(=O)c2cccc(F)c2)CC1,-13.5,-10.0
COc1ccc(S(=O)(=O)N(C)C[C@@H]2Oc3ncc(-c4cccc(F)c4)cc3C(=O)N([C@H](C)CO)C[C@@H]2C)cc1,-28.2,-21.5
COc1ccc(S(=O)(=O)N(C)C[C@H]2Oc3ccc(NC(=O)NC4CCCCC4)cc3C(=O)N([C@H](C)CO)C[C@@H]2C)cc1,-2.4,-0.4

# The list continues:
SMILES,Vaccinia inh,Vaccinia inh Venus
O=C(C[C@@H]1C=C[C@@H](NS(=O)(=O)c2ccc(F)cc2)[C@H](CO)O1)NCc1ccc(Cl)c(Cl)c1,?,.
COc1ccc(NC(=O)N(C)C[C@H]2OCCCC[C@H](C)Oc3ccc(NS(=O)(=O)c4ccc(F)cc4)cc3C(=O)N([C@H](C)CO)C[C@@H]2C)cc1,-10.7,-17.3
Cc1noc(C)c1NC(=O)Nc1ccc2c(c1)CC(=O)N([C@@H](C)CO)C[C@H](C)[C@@H](CN(C)C(=O)Nc1ccc(F)cc1)O2,18.0,22.5
CC(=O)N(C)C[C@H]1Oc2ncc(C#Cc3ccccc3F)cc2C(=O)N([C@@H](C)CO)C[C@@H]1C,4.4,5.5
N#Cc1cccc(-c2ccc3c(c2)[C@@H]2[C@@H](CCN2C(=O)C2CCCCC2)[C@@H](CO)N3)c1,-19.5,-5.7
Cc1noc(C)c1NC(=O)N[C@H]1CC[C@H](CC(=O)Nc2ccc(-c3ccccc3)cc2)O[C@H]1CO,-12.5,-11.1
Cc1noc(C)c1NC(=O)N(C)C[C@H]1Oc2ccc(NC(=O)Cc3cn(C)c4ccccc34)cc2C(=O)N([C@@H](C)CO)C[C@H]1C,26.8,12.5
COc1ccc2c3c([nH]c2c1)[C@H](CO)N(C(C)=O)CC31CN(C(=O)c2ccc3c(c2)OCO3)C1,7.9,4.2
CC=Cc1ccc2n(c1=O)C[C@H]1[C@H](CO)[C@@H](C(=O)N[C@H](C)c3ccccc3)N(C(=O)c3ccccn3)[C@@H]21 (mixture of isomers),-3.4,0.1
C[C@@H]1CN([C@@H](C)CO)C(=O)Cc2cc(NC(=O)Nc3ccc4c(c3)OCO4)ccc2O[C@H]1CN(C)Cc1ccc(C(=O)O)cc1,8.7,12.8
CC=Cc1ccc2n(c1=O)C[C@@H]1[C@@H](CO)[C@H](C(=O)NCc3ccccc3)N(CC)[C@H]21 (mixture of isomers),8.1,5.2
Cn1cnc(S(=O)(=O)N2C[C@H](O)COC[C@H]3O[C@@H](CC(=O)NC4CCCC4)CC[C@@H]32)c1,-9.1,-9.2
CCCNC(=O)[C@H]1[C@H](CO)[C@H]2Cn3c(cccc3=O)[C@H]2N1CCC(F)(F)F,13.9,17.9
COc1ccccc1S(=O)(=O)N(C)C[C@H]1OCc2cnnn2CCCC(=O)N([C@@H](C)CO)C[C@@H]1C,2.9,0.4
CCC(=O)N1C[C@@H](C)[C@H](OC)CN(C)C(=O)c2ccc(NC(=O)c3ccc(F)cc3)cc2OC[C@H]1C,1.6,3.7
C[C@H](CO)N1C[C@H](C)[C@H](CN(C)Cc2ccc3c(c2)OCO3)Oc2ccc(NC(=O)Cc3ccccc3)cc2C1=O,0.3,-7.8
CCC(=O)N(CC(C)C)C[C@H]1[C@H](c2ccccc2)[C@@H](CO)N1C(=O)C1CCC1,18.4,21.7
C[C@@H]1CN([C@H](C)CO)C(=O)c2cc(NC(=O)Nc3ccccc3)ccc2O[C@@H]1CN(C)S(=O)(=O)c1ccc(Cl)cc1,-25.6,-10.0
CCCC(=O)Nc1ccc2c(c1)OC[C@H](C)N(Cc1nccs1)C[C@H](C)[C@@H](OC)CN(C)C2=O,8.7,3.1
O=C(C[C@@H]1C[C@@H]2c3cc(NS(=O)(=O)c4ccccc4)ccc3O[C@@H]2[C@H](CO)O1)NC1CCCCC1,15.0,4.8
C/C=C/c1ccc2c(c1)O[C@H](CN(C)C(=O)C1CCCCC1)[C@@H](C)CN([C@H](C)CO)S2(=O)=O,-30.6,-25.0
C[C@H](CO)N1C[C@H](C)[C@H](CN(C)S(=O)(=O)c2ccc(F)cc2)Oc2ncc(C#CC3CCCCC3)cc2C1=O,-21.2,-16.0
COc1ccccc1CNC(=O)C[C@H]1CC[C@H](NC(=O)CC2CC2)[C@H](CO)O1,-5.2,-0.8
C[C@@H]1CN([C@@H](C)CO)C(=O)c2cc(C3=CCCC3)cnc2O[C@@H]1CN(C)C(=O)CN1CCOCC1,1.8,4.9
CO[C@@H]1CN(C)C(=O)c2ccc(NC(=O)Nc3cccc(F)c3)cc2OC[C@@H](C)N(C(=O)Nc2c(C)noc2C)C[C@H]1C,23.3,13.2
# (list continues)
SMILES,Vaccinia inh,Vaccinia inh Venus
C[C@H]1CN([C@@H](C)CO)C(=O)c2cc(C#Cc3ccccn3)cnc2O[C@@H]1CN(C)Cc1ccccc1,15.8,5.5
C[C@H](CO)N1C[C@H](C)[C@@H](CN(C)CC2CCOCC2)Oc2ncc(-c3ccc(F)cc3)cc2C1=O,2.9,4.5
Cc1ccccc1S(=O)(=O)N1[C@H](C#N)[C@@H](c2ccc(-c3ccccc3)cc2)[C@@H]1CO,-8.1,-4.4
CO[C@@H]1CN(C)C(=O)c2cc(NS(C)(=O)=O)ccc2OC[C@H](C)N(CCC(F)(F)F)C[C@@H]1C,2.6,6.4
Cc1cc(C(=O)Nc2ccc3c(c2)C(=O)N(C)[C@H]2CC[C@H](CC(=O)Nc4ccc(Cl)cc4)O[C@@H]2CO3)no1,?,.
CNC[C@@H]1Oc2c(NS(=O)(=O)c3ccc(C)cc3)cccc2C(=O)N([C@H](C)CO)C[C@H]1C,2.9,4.6
C[C@H]1CN([C@@H](C)CO)C(=O)c2cc(NC(=O)CCN3CCOCC3)ccc2O[C@@H]1CN(C)C(=O)NC1CCCCC1,18.9,9.0
O=C(C[C@@H]1C=C[C@@H](NC(=O)c2cccc(F)c2)[C@@H](CO)O1)NCCN1CCCC1,12.8,11.1
CCC(=O)Nc1ccc2c(c1)C(=O)N(C)C[C@H](OC)[C@H](C)CN(C(=O)c1ccccc1F)[C@H](C)CO2,11.6,10.2
CNC(=O)C[C@@H]1CC[C@@H]2[C@H](COc3ccc(NC(=O)c4ccc(F)c(F)c4)cc3C(=O)N2C)O1,0.7,3.9
C[C@@H]1CCCCO[C@H](CN(C)Cc2ccc(C(=O)O)cc2)[C@H](C)CN([C@@H](C)CO)C(=O)c2cc(NC(=O)c3ccncc3)ccc2O1,28.5,14.5
COc1ccc(S(=O)(=O)N(C)C[C@@H]2OCc3ccccc3-c3ccccc3C(=O)N([C@@H](C)CO)C[C@H]2C)cc1,-5.6,-4.6
C/C=C/c1ccc2c(c1)O[C@@H](CN(C)C(=O)NCCC)[C@@H](C)CN([C@@H](C)CO)S2(=O)=O,-6.6,-1.6
C[C@H](O)C#Cc1cnc2c(c1)C(=O)N([C@@H](C)CO)C[C@@H](C)[C@@H](CN(C)Cc1cncnc1)O2,16.5,10.5
C[C@H]1CN([C@@H](C)CO)C(=O)c2cc(NC(=O)CCN3CCOCC3)ccc2O[C@H]1CN(C)CC1CCCCC1,4.8,-0.9
Cc1ccc(S(=O)(=O)Nc2ccc3c(c2)C(=O)N([C@@H](C)CO)C[C@@H](C)[C@@H](CN(C)CC2CCCCC2)O3)cc1,-18.7,-7.5
C[C@H](NC(=O)C[C@@H]1C=C[C@@H](NC(=O)C2CC2)[C@@H](CO)O1)c1ccccc1,5.7,1.1
CCC(=O)N1C[C@H](C)[C@@H](OC)CN(C)C(=O)c2cc(NC(=O)c3ccc(F)cc3)ccc2OC[C@@H]1C,11.3,3.1
COc1cccc(NC(=O)Nc2ccc3c(c2)C(=O)N(C)C[C@H](OC)[C@H](C)CN(C)[C@H](C)CO3)c1,-6.2,-4.5
C[C@H]1CN([C@@H](C)CO)S(=O)(=O)c2ccc(C3=CCCC3)cc2O[C@@H]1CN(C)Cc1ccncc1,-29.5,-24.7
CC(=O)N(C)C[C@H]1Oc2cc(C#CCC3CCCC3)ccc2S(=O)(=O)N([C@H](C)CO)C[C@H]1C,?,.
CO[C@@H]1CN(C)C(=O)c2ccc(NC(=O)C3CCC3)cc2OC[C@@H](C)N(C(=O)CN(C)C)C[C@H]1C,-7.7,2.7
CC(C)NC(=O)Nc1cccc2c1O[C@H](CN(C)Cc1ccc(C(F)(F)F)cc1)[C@H](C)CN([C@H](C)CO)C2=O,21.4,26.3
Cc1ccc(S(=O)(=O)N(C)C[C@H]2Oc3ccc(NS(=O)(=O)c4ccc(Cl)cc4)cc3CC(=O)N([C@H](C)CO)C[C@@H]2C)cc1,?,.
COc1ccc(C#Cc2ccc3c(c2)[C@]2(C(=O)N3)[C@H](c3ccc(OCCO)cc3)N3[C@H](c4ccccc4)[C@H](c4ccccc4)OC(=O)[C@H]3[C@@H]2C(=O)N2CCN(c3ncccn3)CC2)cc1,-25.8,-9.7
O=C([C@@H]1[C@@H](CO)[C@@H]2Cn3c(ccc(-c4cccnc4)c3=O)[C@H]1N2CCC(F)(F)F)N1CCCCC1,16.6,11.6
C[C@H](CO)N1C[C@H](C)[C@@H](CN(C)C(=O)c2cccc(F)c2)Oc2cc(C#CC3CC3)ccc2S1(=O)=O,-23.8,-32.2

# An excerpt, so the mix of outcomes need not match the whole.
